Screening results as filed in PubChem BioAssay.
Rango-impB inh: inhibitors of Rango-importin beta complex formation; actives 0.031% (n = 340,000); Potency, µM (titrated, usually from 92.2 µM), for inactives: top-dose inhibition of complex formation; Q14974; Rango CFP/YFP FRET sensor + importin beta, 45 min; active = rising FRET ratio curve, often small or poorly fitted; inconclusive = mostly compound fluorescence or quenching in the first reads; inactive = flat curves in all reads;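 note: potency is the fitted concentration of half-maximal effect; 0% = DMSO wells and 100% = buffer wells lacking importin beta; nearly all actives have a fitted effect of over 15% in size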
Target sequence (Q14974 whole entry, looked up): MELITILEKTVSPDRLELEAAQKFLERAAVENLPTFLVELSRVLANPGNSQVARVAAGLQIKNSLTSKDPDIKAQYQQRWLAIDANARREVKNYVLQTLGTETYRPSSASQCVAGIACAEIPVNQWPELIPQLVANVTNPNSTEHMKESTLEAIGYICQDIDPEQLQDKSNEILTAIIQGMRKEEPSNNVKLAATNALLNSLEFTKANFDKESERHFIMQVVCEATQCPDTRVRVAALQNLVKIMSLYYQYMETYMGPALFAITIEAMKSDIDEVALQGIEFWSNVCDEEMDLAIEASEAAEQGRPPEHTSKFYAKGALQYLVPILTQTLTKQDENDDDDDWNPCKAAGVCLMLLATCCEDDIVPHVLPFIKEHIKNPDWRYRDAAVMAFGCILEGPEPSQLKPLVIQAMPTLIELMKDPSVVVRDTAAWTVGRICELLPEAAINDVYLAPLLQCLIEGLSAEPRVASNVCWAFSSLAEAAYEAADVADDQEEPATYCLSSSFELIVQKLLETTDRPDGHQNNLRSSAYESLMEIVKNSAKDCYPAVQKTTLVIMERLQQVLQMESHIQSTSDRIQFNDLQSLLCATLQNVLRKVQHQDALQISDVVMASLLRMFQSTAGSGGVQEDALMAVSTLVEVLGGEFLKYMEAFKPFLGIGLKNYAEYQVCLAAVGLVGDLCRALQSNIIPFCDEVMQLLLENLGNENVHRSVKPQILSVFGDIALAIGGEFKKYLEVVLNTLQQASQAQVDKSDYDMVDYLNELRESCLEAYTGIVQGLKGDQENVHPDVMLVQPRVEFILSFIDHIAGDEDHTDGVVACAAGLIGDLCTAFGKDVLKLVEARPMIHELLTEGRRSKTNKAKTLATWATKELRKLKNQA
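FRET biosensor (snurportin 1 IBB flanked by EYFP and cerulean), 50 nM, with compound 5 min, then 0.125 microM importin beta in PBS, 1 mM DTT, 0.02% Tween-20, 0.1% BSA. CFP/YFP ratio read after 45 min at room temperature; pre-read flags interference.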
miR-21 reporter: miR-21 reporter, rising signal | HeLa miR-21 FLuc reporter, luciferase, 48 h | 340,000 tested, under 10 active | Potency, µM (series often up to 38.3 µM), inactives show at the highest dose reporter change, positive = more light; active = well fitted rising curve with a large enough effect; inconclusive = small, poorly fitted or top-dose-only effect; inactive = no such curve, though single readings can be large or run the other way;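 note: % of control where 0% means no effect; miR-21 action dims this reporter so a rising signal means less miR-21 action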
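Compounds were titrated across several concentrations (up to approximately 40 uM) and incubated 48 hours with HeLa miR-21-FLuc reporter cells (miR-21 target sequence downstream of FLuc, endogenous miR-21). Readout was firefly luciferase luminescence after lytic detection reagent.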
GLA inh pH 4.5: blocks human alpha-galactosidase A at pH 4.5. P06280. purified enzyme, 4-MU-alpha-Gal fluorescence, pH 4.5. activity change, negative = inhibition, % at 105 µM. 230,000 tested, under 10 active; inconclusive = small, poorly fitted or top-dose-only inhibition, or a rising curve; inactive = flat fitted curve, though single readings scatter; no compound was filed as active;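 note: 0% = full activity with enzyme and -100% = basal without enzyme; dose as in the result columns while the protocol names 77 µM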
Rango release inh: inhibition of RanGTP-driven Rango-importin beta dissociation. Potency, µM (doses to about 46.1 µM), without a hit: at the highest dose activity change, negative = inhibition. O95149+P62826. actives 0.071% (n = 340,000). Biochemical FRET Rango-importin beta, RanGTP-induced dissociation; active means falling FRET ratio curve, often poorly fitted, with flat reads before Ran was added; inconclusive means other falling curves, or compound fluorescence or quenching; inactive means flat or rising ratio curve;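 note: potency is the fitted concentration of half-maximal effect; % of control where 0% means no effect; nearly all actives have a fitted effect of over 45% in size; -100% = wells without RanGTP and RCC1; the record marks most hits as doubtful in a second field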
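Rango FRET biosensor (snurportin-1 IBB flanked by N-terminal EYFP and C-terminal CFP10) at 0.1 uM, with 0.25 uM importin beta in PBS, 1mM DTT, 0.02% Tween-20, 0.1% BSA. 0.6 uM Ran, 2mM GTP and 0.2 uM RCC1 were then added for 45 min at room temperature. Inhibition read as loss of FRET rise.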
Active calls of the source: *; ? = inconclusive; . = not tested or not shown. An excerpt; count on the stated rates, not on these rows.

SMILES	Rango-impB inh	miR-21 reporter	GLA inh pH 4.5	Rango release inh
Oc1ccc(-c2c(-c3ccsc3)sc3ccccc23)cc1	-1.3%	10%	.	0%
COc1ccc(S(=O)(=O)NC2CCc3ccccc32)cc1OC (centres undefined)	0.1%	-6%	.	-3%
Cc1cc(C)cc(OCC(O)CN2CCN(Cc3ccc4c(c3)OCO4)CC2)c1 (centres undefined)	-1.8%	6%	-4	-10%
COc1ccc(C(NC(=O)c2cccnc2)c2cc(Cl)c3cccnc3c2O)cc1OC (centres undefined)	37µM*	23%	5	?
Cn1c(=O)oc2cc(S(=O)(=O)NCCC(=O)N3CCN(c4ccccc4)CC3)ccc21	0.9%	3%	.	0%
CN1CCN(C(=O)c2ccc(S(=O)(=O)Nc3ccccc3)cc2)CC1	0.1%	.	.	4%
Cc1ccc(C(CNC(=O)C(=O)Nc2ccc3c(c2)OCCO3)N2CCN(C)CC2)cc1 (centres undefined)	-3.5%	.	.	0%
COc1ccc(NC(=O)CSc2n[nH]c(=O)n2C2CC2)cc1OC	1.1%	.	.	12%
C=C(C(=O)c1ccccc1)C(CC(=O)c1ccccc1)c1ccccc1 (centres undefined)	-1.3%	?	-2	7%
CCCCCC(=O)Nc1ccc(N2CCN(C(=O)c3ccccc3)CC2)cc1	0.1%	-4%	1	-1%
CCOC(=O)N1CCC(NC(=O)CS(=O)Cc2nc(-c3ccc(OC)c(OC)c3)oc2C)CC1 (centres undefined)	-1.2%	0%	-3	34%
O=C(NCc1ccco1)c1cnn2c(C(F)F)cc(-c3ccccc3)nc12	?	0%	0	-2%
CCOc1ccc(S(=O)(=O)NCCC(=O)OCC(=O)c2ccc(NC(C)=O)cc2)cc1	-2.4%	.	.	0%
COc1ccc(S(=O)(=O)N(C)c2ccc(C(=O)N3CCC(C(N)=O)CC3)cc2)cc1OC	-0.4%	-1%	0	-11%
COc1ccc(CN2CCC(=O)N([C@H](CO)CC(C)C)CC2)cc1OC	4.7%	-1%	.	1%
c1ccc2oc(SCc3nc4ccccc4s3)nc2c1	-1.0%	-47%	12	-5%
COC(=O)C(Cc1ccc(O)cc1)NC(=O)Cn1cc(C)c(=O)[nH]c1=O (centres undefined)	3.3%	.	.	-2%
CC(Sc1nncs1)C(=O)Nc1ccc2c(c1)OCCO2 (centres undefined)	4.7%	.	.	15%
Cc1cccc(C(=O)Nc2ccc(C(=O)Nc3ccc(O)cc3)cc2)c1	-1.6%	-5%	.	1%
CCSc1ccccc1-c1nc(-c2ccncc2)no1	0.2%	-44%	.	1%

Quoted from the listing:
`c1ccc2oc(SCc3nc4ccccc4s3)nc2c1` – miR-21 reporter = -47%
`CC(Sc1nncs1)C(=O)Nc1ccc2c(c1)OCCO2` (centres undefined) – Rango-impB inh = 4.7%

Full records as entered above. Values in the order: Rango-impB inh, miR-21 reporter, GLA inh pH 4.5, Rango release inh
Oc1ccc(-c2c(-c3ccsc3)sc3ccccc23)cc1 in the list: -1.3%, 10%, ., 0%
CCOc1ccc(S(=O)(=O)NCCC(=O)OCC(=O)c2ccc(NC(C)=O)cc2)cc1 in the list: -2.4%, ., ., 0%
Cc1cccc(C(=O)Nc2ccc(C(=O)Nc3ccc(O)cc3)cc2)c1 in the list: -1.6%, -5%, ., 1%

Some of these compounds in order of formula weight, ascending:
SMILES	Rango-impB inh	miR-21 reporter	GLA inh pH 4.5	Rango release inh
CN1CCN(C(=O)c2ccc(S(=O)(=O)Nc3ccccc3)cc2)CC1	0.1%	.	.	4%
COC(=O)C(Cc1ccc(O)cc1)NC(=O)Cn1cc(C)c(=O)[nH]c1=O (centres undefined)	3.3%	.	.	-2%
COc1ccc(S(=O)(=O)N(C)c2ccc(C(=O)N3CCC(C(N)=O)CC3)cc2)cc1OC	-0.4%	-1%	0	-11%

Next part
SMILES	Rango-impB inh	miR-21 reporter	GLA inh pH 4.5	Rango release inh
O=C(Cn1cnc2c(nnn2-c2cccc(Cl)c2)c1=O)N1CCOCC1	0.7%	0%	-16	1%
Cc1nc2ccc(S(=O)(=O)N(C)CC(=O)N3CCc4ccccc43)cc2s1	-10%	-4%	4	-10%
O=C(Nc1ccc(N2CCCC2=O)cc1)c1cncc(Br)c1	-2.0%	-3%	.	1%
COc1ccc(C(=O)c2c[nH]c(C(=O)N=CN(C)C)c2)cc1	-1.0%	-5%	-5	-3%
O=C(CCCc1cccs1)Nc1ccc2c(c1)OCO2	1.6%	-51%	0	22%
Clc1ccc(Cc2ccc(Cl)nn2)c(Cl)c1	0.1%	-11%	-1	1%
COc1ccc(NC(=O)[C@H](COCc2ccccc2)NC(=O)OC(C)(C)C)cc1	-1.7%	-11%	10	-7%
NC(=O)c1ncn([C@@H]2O[C@H](CNCc3ccc(-c4cc(C(F)(F)F)ccc4Cl)o3)[C@@H](O)[C@H]2O)n1	-5.6%	.	.	22%
CC1CCCN(C(=O)c2ccc(Br)c(S(=O)(=O)N3CCOCC3)c2)C1 (centres undefined)	-0.3%	.	.	1%
Cc1ccc(OCCN2C(=O)c3ccccc3C2=O)cc1	-1.0%	-32%	-16	0%
O=C1CC2(CCCCC2)Oc2ccc(Cl)cc21	-0.3%	.	.	16%
COC(=O)C(C(=O)Nc1cc(C)on1)C1CCCCCC1 (centres undefined)	2.1%	17%	-2	2%
Cc1ccc(CSCCC(=O)NCCc2ccc(Cl)cc2)cc1	-0.2%	-2%	-1	-10%
O=C(Nc1ccccc1Oc1ccccc1)c1cccc([N+](=O)[O-])c1	-2.4%	-3%	?	0%
Clc1ccc(CN2CCN(/N=C/c3ccco3)CC2)cc1	-0.9%	-3%	3	-3%
COC(=O)CN1C(=O)COc2ccc(S(=O)(=O)NCc3ccc(Cl)cc3)cc21	0.7%	3%	.	2%
O=C(CNc1ccccc1)N/N=C/c1cc([N+](=O)[O-])ccc1N1CCCC1	-3.3%	6%	-8	-9%
COc1ccc(NC(=O)CS(=O)c2ccc(F)cc2)cc1 (centres undefined)	-3.4%	-18%	.	-8%
COc1ccc(CNC(=O)[C@H](Cc2c[nH]c3ccccc23)NC(C)=O)cc1OC	-1.5%	0%	.	-3%
Cc1ccccc1OC(C)C(=O)NCc1cccnc1 (centres undefined)	1.3%	1%	6	-1%
ClCCCc1cn(C[C@H]2CC[C@@H]([C@@H]3CC[C@H](Cn4cc(CCCCl)nn4)O3)O2)nn1	0.2%	1%	.	8%
O=C(CCc1ccccc1)NNc1cc(N2CCCCC2)nc(N2CCCCC2)n1	?	0%	2	-20%
COc1ccccc1CCNC(=O)Cn1c(=O)oc2ccccc21	4.5%	-3%	.	22%
O=C(CCN1C(=O)C2C3CCC(C3)C2C1=O)Nc1ccc([N+](=O)[O-])cc1 (centres undefined)	-1.1%	-4%	2	11%
CCOc1ccc(CSC2=NCCN2)cc1[N+](=O)[O-]	2.9%	?	-15	-16%
S=c1[nH]nc(COc2ccccc2)n1/N=C/C(Cl)=C/c1ccccc1	-0.3%	17%	-15	0%
CCN(CC(=O)NCc1ccc(Cl)cc1)C(=O)COc1ccc(Cl)cc1Br	0.5%	.	.	1%
COc1ccc(NC(=O)CSc2nc3ccccc3nc2N2CCCC2)cc1	?	-8%	.	?
Cc1cccc(NC(=O)c2ccc(C3SCC(=O)N3CCc3ccccc3)cc2)c1C (centres undefined)	-0.4%	25%	-11	-24%
O=C(NCc1ccc(Cl)cc1)N1CCOCC1	0.0%	5%	.	32%
CCCNc1c(NC(=O)C2CCC(C)CC2)c(=O)oc2ccccc12 (centres undefined)	1.9%	2%	.	9%
Cn1cnnc1SCC(=O)NCc1ccccc1	-6.3%	-7%	1	15%
COc1ccc(-c2noc(CCC(=O)N3CCN(c4ccc(F)cc4)CC3)n2)cc1	-1.4%	.	.	3%
O=C(c1ccc(OC2CCN(CCc3ccccc3)CC2)cc1)N1CCCC(CO)C1 (centres undefined)	-1.8%	-2%	-2	?
COCCCNC(=S)NCCNc1nc2cc(C)cc(C)c2cc1C#N	?	-4%	9	?
O=[N+]([O-])c1cc(/C=N/N/C(=N/c2ccccn2)c2ccccn2)ccc1O	3.3%	-40%	-8	-10%
CCOC(=O)c1nn(-c2ccc(OCC)cc2)c2nc(-c3ccco3)c(C#N)c(=O)n12	?	-19%	23	-8%
OCc1nc2nc(Cl)c(Cl)nc2[nH]1	?	0%	-5	?
Cc1ccc2[nH]c(=O)c3cc(C(=O)N(C)c4ccccc4C)sc3c2c1	0.0%	0%	3	10%
CNc1ncnc2sc(-c3ccccc3)cc12	-2.2%	-48%	-10	-11%
NNC(=O)C(=O)NCCCN1CCOCC1	3.5%	1%	-3	-11%
C=CCn1c(COc2ccccc2F)nnc1SCC(=O)Nc1cc2oc3ccccc3c2cc1OC	-0.1%	-4%	-4	-16%
COc1cccc(CN(C)Cc2cc(=O)oc3cc(O)c(Cl)cc23)c1	0.0%	-12%	.	?
COc1cc(Cl)ccc1OCc1cc(C(=O)N(C)CC2CCCCO2)no1 (centres undefined)	-3.5%	-61%	.	9%
N#Cc1cc2c(ccc3ccccc32)oc1=O	?	0%	-7	?
Cc1ccc(S(=O)(=O)NCC(=O)OCC(=O)Nc2ccc(C)c(S(=O)(=O)N3CCOCC3)c2)cc1	0.0%	.	.	16%
CCc1ccc(NC(=O)N(CCCN2CCOCC2)C(C)c2cc3cccc(OC)c3o2)cc1 (centres undefined)	-1.3%	-5%	-1	1%
O=C(CSc1nnc(-c2ccco2)o1)NC(=O)Cc1ccccc1	0.3%	-8%	6	-16%
COC(=O)c1ccc2[nH]cc(CCO)c2c1	-2.2%	0%	.	11%
COc1ccc(NC(=O)N2CCCC(c3nc(-c4ccc(OC)cc4)no3)C2)cc1 (centres undefined)	-1.9%	9%	-7	0%
Cc1ccc(CNC(=O)CNC(=S)N(Cc2ccccc2)Cc2ccccc2F)cc1	-1.8%	21%	-16	0%
Cc1ccc(C(=O)NC2CCCCCC2)o1	3.7%	-34%	-6	0%
Cc1cc(C)c(C(=O)Cn2cnc3cc([N+](=O)[O-])ccc3c2=O)cc1C	-4.3%	-11%	-9	-9%
COc1cc(OC)c(NC(=O)c2cccc(F)c2)cc1Cl	-1.6%	-9%	10	11%
Cc1ccc2[nH]c(=O)c(C3C(C#N)=C(N)Oc4c3ccc3cccnc43)cc2c1 (centres undefined)	-1.3%	15%	2	2%
O=C(/C=C1\C(=O)Nc2ccccc21)/C=C1\C(=O)Nc2ccccc21	?	8%	-7	-23%
CS(=O)(=O)N(CC(=O)O)c1ccc(Oc2ccccc2)cc1	2.5%	-9%	-2	-6%
O=C(Nc1ccccc1Cl)c1ccc(=O)[nH]n1	0.0%	-16%	.	1%
COc1ccc(NC(=O)CCn2c(=S)[nH]c3ccccc3c2=O)cc1OC	-2.5%	-2%	.	-1%
CCN(CC(=O)Nc1ccc2c(c1)CCC2)Cc1nc2ccccc2c(=O)[nH]1	?	-2%	1	-16%

(cont.)
SMILES	Rango-impB inh	miR-21 reporter	GLA inh pH 4.5	Rango release inh
CC(C)C(NC(=O)c1c(F)cccc1F)C(=O)NCc1ccncc1 (centres undefined)	-0.5%	.	.	0%
Cc1ccc(S(=O)(=O)N2CCCCC2)cc1NC(=O)COC(=O)c1ccc(=O)[nH]c1	?	.	.	8%
CC(=O)Nc1ccc(OCC(O)Cn2c(C)nc3ccccc32)cc1 (centres undefined)	-6.3%	8%	-9	-2%
CCn1c2ccccc2c2cc(NC(=O)Nc3ccc([N+](=O)[O-])cc3C)ccc21	.	-3%	1	.
Cc1nc(NCC2CCCO2)nc2c1C(=O)CC(C)(C)C2 (centres undefined)	3.9%	-7%	5	7%
Cc1ccc(SCC(=O)Nc2cccc(S(=O)(=O)N3CCOCC3)c2)cc1C	-0.8%	.	.	-2%
O=C(c1ccccc1)c1cccc[n+]1[O-]	0.4%	2%	.	13%
COc1ccc(C)cc1S(=O)(=O)Nc1ccc2c(c1)OCCO2	1.1%	3%	.	-4%
CCC1=NN(C(=O)Cc2ccc(OC)cc2)C(O)(C(F)(F)F)C1 (centres undefined)	?	-12%	9	4%
Cc1ccc(-c2cc(C(=O)Nc3nccs3)c3ccccc3n2)c(C)c1	0.6%	20%	-12	2%
COc1cc(OC)cc(C(=O)Nc2ccc([N+](=O)[O-])cn2)c1	6.0%	-22%	2	-6%
CCCN1C2CCCC1CC(NC(=O)c1ccc(C(C)(C)C)cc1)C2 (centres undefined)	0.3%	-30%	.	2%
